Bioassay records (PubChem)
BJeLR lethal = BJeLR cell viability loss; hit rate 0.17% among 300,000; inhibition, % (no concentration beside the values); BJeLR (HRASV12) viability, CellTiter-Glo ATP luminescence, 48 h; reference of the scale not given here; AID 1554;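 active means replicate mean above 50%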;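 further: 50 nL library stock added to about 25 µL; numbers are from one replicate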
Sa RN4220 lethal = kills Staphylococcus aureus RN4220 | S. aureus RN4220 growth, OD600, 16 h | inhibition, % (concentration not given with the values) | hit rate 0.33% among 330,000 | AID 1259311;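 active means z-score of -3 or lower and OD600 up to 0.18 on both plates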;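 further: plate controls were untreated cells for no effect and reference antibiotic for full effect; stock transfer was 100 nL into about 80 µL; one replicate is shown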
Mtb hypoxia rep = inhibitors of hypoxia-regulated fluorescent reporter in Mycobacterium tuberculosis; M. tuberculosis hypoxia-regulated fluorescent reporter, fluorescence; hit rate 0.1% among 300,000; fluorescence inhibition, % (no concentration beside the values);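 active means 35 to 45% if threefold the growth effect, above 45% if 1.5-fold the growth effect; inactive means the rest, general growth blockers included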;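 further: wells of about 50 µL received 100 nL stock; 0% = vehicle wells and 100% = reference inhibitor wells; whole bacteria with a GFP reporter of the hypoxia response; strong numbers were not always called active; many hits fall short of the cut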
PrP 5UTR inh = inhibition of PrP 5' UTR reporter expression. AID 488862. hit rate 0.35% among 340,000. inhibition, % (concentration not given with the values). cell-based PrP 5' UTR mRNA reporter, plate reader;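 active means every replicate at 50% or more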;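 further: 0 = median of the neutral control wells; tested in H4 reporter cells; numbers are from one replicate; inactives centre near -14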
Sa ugtP lethal = compounds lethal to S. aureus RN4220 ugtP deletion mutant; OD600 growth, 16 h; some inactives read as strong as hits; growth inhibition, % (no concentration beside the values); hit rate 0.54% among 330,000; AID 1259309;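 active means z-score under -3 and OD600 up to 0.15 on both plates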;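 further: plate controls were untreated wells for no effect and antibiotic for full effect; wells of about 80 µL received 100 nL stock; the first replicate is given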
Autofluor counter = flagged as autofluorescent in microsphere protease counterscreen. compound autofluorescence counterscreen, microsphere flow cytometry; hits give high values. fluorescence intensity (concentration not given with the values). hit rate 3.1% among 360,000;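 active means at least 3 SD above the mean of all compounds, about 16000 in these data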;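 further: 100 nL of 1 mM stock went into each well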
Mtb hypoxia rep growth = also measured in Mtb hypoxia rep; calls as there; growth inhibition, %; measured here: M. tuberculosis growth (absorbance);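 0% = vehicle and 100% = reference antibiotic; read after six days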
An asterisk follows results filed as active; / = no result given. Compounds as they come (roughly 4% active in at least one column).

compound	Mtb hypoxia rep growth	Sa RN4220 lethal	PrP 5UTR inh	Autofluor counter	BJeLR lethal	Sa ugtP lethal	Mtb hypoxia rep
COc1ccc(-n2c(Cc3cccn3C)nnc2SCC(=O)NC2CCCCC2)cc1	/	-0.4	-31	6158	-11	5	/
CC(=O)Nc1cccc(C(=O)N(Cc2ccccc2)Cc2ccccc2)c1	4	3.2	-17	3565	4	7	11
CCOc1cc(/C=N/NC(N)=O)cc(Br)c1OCc1ccccc1F	/	/	-12	8338	-5	/	/
CC(/C=C/c1ccccc1)=NNC(=O)Cn1nnc(N)n1	0	4.5	/	/	/	3	5
Cn1c(=O)c(C(=O)CN2CC(=O)Nc3ccccc32)c(N)n(Cc2ccccc2)c1=O	9	2.8	-10	3945	1	8	11
Cc1ccc(S(=O)(=O)Oc2ccccc2C=NN=C(N)N)cc1	-6	-2.4	/	/	/	2	-2
O=P(O)(C(O)c1ccccc1)C(O)c1ccccc1 (stereo unspecified)	7	0.4	-7	3039	5	0	0
Cc1cc(C=C2C(=O)N(C)C(=S)N(C)C2=O)c(C)n1-c1ccncc1	3	-1.0	/	/	-6	-5	4
CC(C)(C)NC(=S)NN=Cc1cccnc1	2	4.5	/	/	/	10	10
CC(C)CN(C(=O)COc1cccc(-n2cnnn2)c1)C1CCS(=O)(=O)C1 (stereo unspecified)	/	/	-5	6192	5	/	/
Brc1ccc(OCCOc2cccc3cccnc23)cc1	/	4.3	-31	2375	0	7	/
CC1=C(C(=O)OCc2ccccc2)C(c2ccc3ccccc3c2)NC(=O)N1CCCCCC(=O)O (stereo unspecified)	13	20	/	/	0	27	3
CCN(C(=O)CN1CCN(c2ccc(OC)cc2)CC1)c1c(N)n(Cc2ccccc2)c(=O)[nH]c1=O	/	1.6	-100	4369	2	-3	/
COC(=O)CC1C(=O)NCCN1C(=O)CSc1nnc(Nc2ccc(C)cc2)s1 (stereo unspecified)	/	-3.9	-11	4103	-3	1	/
CCOC(=O)C1Sc2ccccc2NC1=O (stereo unspecified)	2	7.3	-27	3936	-19	4	7
CC(C)CC(=O)N1CCN(S(C)(=O)=O)CC1	-6	5.1	-20	2474	-5	10	-1
Nc1cc(Br)c(N)c(Br)c1	0	4.1	-11	24247*	11	-4	4
COc1ccccc1/C=N/NC(=O)c1nnn(-c2nonc2N)c1CN(C)c1ccccc1	/	/	-13	7097	3	/	/
O=C1OCCC1Sc1nc2ccccc2s1 (stereo unspecified)	/	0.6	-7	4168	5	7	/
O=C(NCC1CCCO1)c1cc2c([nH]c3ccccc32)c(-c2cccc(Cl)c2)n1 (stereo unspecified)	/	-6.5	-9	5898	4	-43	/
CCC(=O)NC(Nc1c(C)n(C)n(-c2ccccc2)c1=O)C(Cl)(Cl)Cl (stereo unspecified)	6	3.0	25	2190	-8	0	-2
COc1cc(CN2CCC(N3CCC(C(=O)N4CCCC4)CC3)CC2)cc2c1OCO2	5	-3.1	2	7306	0	5	14
COc1ccc2cc(C(=O)N/N=C/c3cc(OC)c(OC)c(OC)c3)[nH]c2c1	/	/	15	4119	-4	/	/
COc1ccc(-c2ccc3oc(-c4ccc(OC)cc4)c(C#CCCO)c3c2)cc1	4	13	-23	3419	18	6	10
CCOc1ccc(CC(=O)Nc2sc(Cc3ccccc3)cc2C(N)=O)cc1OCC	3	1.2	0	17390*	4	13	-3
O=Cc1cn(CC(=O)N2CCCc3ccccc32)c2ccccc12	/	-0.7	-1	4863	1	-2	/
O=C(Cc1ccccc1)N1CCN(c2ccccc2F)CC1	17	-0.8	-12	3912	7	9	25
COc1ccc(-c2c(C)cc3oc(=O)cc(-c4ccccc4)c3c2C)cc1F	4	1.9	1	3108	/	10	-6
CC(NS(=O)(=O)c1ccccc1)C(=O)Nc1ccc(S(N)(=O)=O)cc1 (stereo unspecified)	2	3.5	-35	9570	-1	-8	-1
CC(=O)c1c[nH]c(C(=O)NCC2CCCO2)c1 (stereo unspecified)	8	4.7	-20	8216	0	-15	-4
COC(=O)c1c(C)[nH]c(C(=O)CC#N)c1C	6	0.0	-10	4030	8	-6	2
CC(=O)Nc1cccc(NC(=O)CSc2ccc(-c3cccnc3)nn2)c1	2	30	-23	4421	-13	7	9
CC(C)NC(=O)C(C)N1CCN(S(=O)(=O)c2ccc3ccccc3c2)CC1 (stereo unspecified)	0	2.8	-12	3860	-2	7	16
Cc1ccc(NC(=O)Cn2nc(-c3ccccc3)nc2-c2ccccc2)c(C)c1	/	5.0	-19	2582	-6	-4	/
COc1ccc(-c2ccc(NC(=O)c3ccc(Br)o3)cc2)nn1	7	3.8	-107	6564	14	-4	4
COc1ccc(CCNC(=O)C(=O)NCCOc2ccccc2Cl)cc1OC	1	5.7	-31	2145	-7	4	-5
O=C1N=C(N2CCCCC2)S/C1=C\c1ccc(Br)cc1	10	1.8	-10	3733	18	2	23
Cc1cc(C)c2nc(-c3ccccn3)cc(C(=O)Nc3ccc(S(=O)(=O)Nc4onc(C)c4C)cc3)c2c1	11	18	-18	4696	10	13	10
CC1(C)CC(=O)C2=C(C1)NC(=O)CC2c1ccc(N(CCC#N)CCC#N)cc1 (stereo unspecified)	-3	3.0	-20	11142	-1	5	0
COc1cc(C=NNc2nc3ccccc3o2)cc(OC)c1OC	2	1.7	/	/	/	-9	-5
CCCc1cc(=O)oc2cc(C)c(CN3CCCC3)c(O)c12	1	4.1	-24	9292	13	-4	4
CCOC(=O)C1(Cc2cccc(Cl)c2)CCCN(C(=O)CCOC)C1 (stereo unspecified)	2	8.0	-3	2518	-3	8	4
COc1ccc(CN2C(=O)c3ccccc3C2=O)cc1C(=O)Nc1ccccc1N1CCOCC1	2	-0.6	-14	3237	-16	-6	1
CC(=NNc1ncc(Cl)cc1Cl)c1cccs1	2	-1.7	/	/	/	5	16
Cc1ccc(S(=O)(=O)Nc2cccc(S(=O)(=O)N3CCCC3)c2)cc1C	-5	6.5	-22	5887	/	-5	7
Cc1occc1-c1nnc(SCC(=O)N2CCCC(C)C2)o1 (stereo unspecified)	4	1.7	-20	3946	/	3	3
CCCCn1nc2cc(C(=O)NC3CCc4ccccc43)ccc2c1OCC (stereo unspecified)	11	4.0	-15	3821	-2	-11	5
CC(C(=O)N1CCCC1)N1CCN(S(=O)(=O)c2ccc(OC(F)(F)F)cc2)CC1 (stereo unspecified)	-6	0.4	16	2878	/	6	-11
Cc1ccccc1-c1noc(-c2ccccc2C(=O)NCC2CCCO2)n1 (stereo unspecified)	8	5.4	-13	3960	-15	3	7
Cc1cccc(/C=C2/Sc3ccc(C(=O)NCCCN4CCOCC4)cc3NC2=O)c1	/	/	-4	5043	-5	/	/
[N-]=[N+]=NC(CCN1CCC(NC(=O)OCc2ccccc2)CCC1=O)c1ccccc1 (stereo unspecified)	9	1.6	/	/	/	-12	3
Oc1ccc(Nc2nc(-c3ccccc3)nc3ccccc23)cc1	-2	-7.3	-12	3628	0	15	5
Cc1cccc(OCCNC(=O)CSc2ccc(C(F)(F)F)cc2[N+](=O)[O-])c1	2	5.0	-16	2623	-1	1	14
COc1ccccc1CCC(=O)OCC(=O)NC1CCCCC1	-9	1.1	-20	5520	-5	2	-6
COc1ccc(C)cc1NC(=O)C1CCCN(S(=O)(=O)c2cccc3cccnc23)C1 (stereo unspecified)	/	-3.4	-11	6334	-13	-6	/
CCCC(=O)NC(=S)Nc1ccc(S(=O)(=O)Nc2ccc(OCC)cc2)cc1	5	7.1	-16	2034	-8	88*	3
CCOC1OC(C(=O)O)=CC(C(C)(C)C)C1CCCO (stereo unspecified)	7	9.0	/	/	/	-2	13
O=c1cc(O)c2sc(Nc3ccc(Cl)c(F)c3)nc2[nH]1	2	75	-27	5028	6	86	9
CCOC(=O)c1ccc(NC(=O)c2nc[nH]c2C(=O)NC(C)C(=O)OC(C)(C)C)cc1 (stereo unspecified)	5	-2.7	/	/	/	-25	-8
Cc1cc(OCc2cc(C(=O)N(C)Cc3nonc3C)no2)cc(C)c1Cl	3	7.8	-9	5960	3	-10	15

Remaining list, next part
compound	Mtb hypoxia rep growth	Sa RN4220 lethal	PrP 5UTR inh	Autofluor counter	BJeLR lethal	Sa ugtP lethal	Mtb hypoxia rep
CC(NC(=O)c1ccccc1)C(=O)N/N=C/c1ccccc1 (stereo unspecified)	/	/	-10	4418	0	/	/
COc1ccccc1N1CCN(C(=O)C(F)F)CC1	8	6.3	-9	8211	2	3	1
Clc1cccc(-c2ccc3ncnc(NCc4cccs4)c3c2)c1	2	-6.2	-2	3755	/	3	-3
COc1cccc(CNC(=O)CCc2ccc(OC)c(OC)c2)c1	0	1.7	6	3801	-9	1	13
CC[C@]12c3[nH]c4ccc(Cl)cc4c3CCN1C(=O)[C@@H](CC(=O)NCc1ccc(OC)c(OC)c1)C[C@@H]2C(=O)N1CCN(C(=O)c2ccco2)CC1	3	-1.2	-17	4070	/	1	1
N#Cc1ccsc1NC(=O)CSc1ncn[nH]1	6	0.1	-36	22762*	-15	-1	-4
Cc1noc(C)c1C(=O)N(CC(=O)NC1CCCC1)Cc1ccccc1F	3	2.6	-10	5704	3	-1	2
COc1c(F)c(F)c(C(=O)Nc2ccc(N3CCN(Cc4ccccc4)CC3)cc2)c(F)c1F	13	5.0	-20	24627*	18	14	-1
C/C(=N\NC(=S)NCCc1ccccc1)c1ccc(Cl)cc1	/	/	-22	2092	-3	/	/
CCOc1ccc(NC2OCC(O)C(O)C2O)c([N+](=O)[O-])c1 (stereo unspecified)	11	5.7	-16	3330	2	4	19
COc1ccc(NC(=O)CCNS(=O)(=O)c2cccc3nsnc23)cc1OC	-1	8.7	-14	2578	-16	5	-1
C=C1CC2C3C=C(C)C4=CC(=O)CC[C@]4(C)C3CC[C@]2(C)[C@@]1(OC(C)=O)C(C)=O (stereo partly specified)	-4	4.3	/	/	/	-3	7
CC(CCC(=O)O)=NNc1ccc([N+](=O)[O-])cc1[N+](=O)[O-]	1	2.4	/	/	/	-9	-1
O=C(NCc1cccs1)C1CCN(S(=O)(=O)c2cccs2)CC1	1	-4.6	-1	10730	-20	-2	-8
O=C(Nc1cccc(S(=O)(=O)N2CCCCC2)c1)c1ccccc1NS(=O)(=O)c1ccc(F)cc1	0	16	-7	2016	11	2	5
CC(=O)C(C)Oc1cc(C)cc2oc(=O)c(C)c(C)c12 (stereo unspecified)	1	3.0	-3	4018	4	2	1
COc1ccccc1CCNC(=O)Cc1cccs1	7	2.6	-13	3650	3	1	20
COc1cc(C=Nn2c(COc3ccccc3)n[nH]c2=S)cc(OC)c1OC(C)=O	11	2.7	/	/	/	1	-9
COCCNC(=S)N1CCN(c2cccc(C(F)(F)F)c2)CC1	5	0.7	-12	4253	0	3	10
CCn1cc(CN2CCCC(CNC(=O)COc3ccccc3OC)C2)c(C)n1 (stereo unspecified)	1	-1.4	6	6189	0	3	15
Cc1cccc(C)c1OCC(O)CN1CCC(CN2C(=O)c3cccc4cccc(c34)C2=O)CC1 (stereo unspecified)	/	-12	-10	5333	5	2	/
Cc1nn(C)c(C(=O)Nc2ccn(Cc3ccccc3F)n2)c1[N+](=O)[O-]	8	5.0	4	11433	-3	6	9
CCOc1ccc(-n2c(SCC(=O)Nc3ccc(OC)cc3)nc3sc4c(c3c2=O)CCN(C)C4)cc1	14	0.4	4	4846	2	11	3
CNc1ccccc1-c1nc2ccccc2n(C)c1=O	/	3.3	-4	3661	/	-1	/
CCN1C(=O)/C(=C2\C=Cc3ccccc3N2CC)SC1=S	6.2*	2.7	-16	10320	7	2	37*

2 entries picked at random from the list so far:
compound	Mtb hypoxia rep growth	Sa RN4220 lethal	PrP 5UTR inh	Autofluor counter	BJeLR lethal	Sa ugtP lethal	Mtb hypoxia rep
CNc1ccccc1-c1nc2ccccc2n(C)c1=O	/	3.3	-4	3661	/	-1	/
COCCNC(=S)N1CCN(c2cccc(C(F)(F)F)c2)CC1	5	0.7	-12	4253	0	3	10
